KCNQ2 inh – KCNQ2 potassium channel inhibitors, primary screen, cell-based, CHO-K1, FluxOR thallium flux, B-score (AID 2156). 20 min; stronger effect = lower value; only compounds with negative scores are shown here; some inactives read as strong as hits. hit rate 1.1% among 310,000. B-score at 10 µM;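 active = fluorescence ratio B-score at most minus 3 library SDs, with starting brightness B-score within 2 library SDs, cut at about -5.5 in these data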
Target sequence (O88943 whole entry, looked up): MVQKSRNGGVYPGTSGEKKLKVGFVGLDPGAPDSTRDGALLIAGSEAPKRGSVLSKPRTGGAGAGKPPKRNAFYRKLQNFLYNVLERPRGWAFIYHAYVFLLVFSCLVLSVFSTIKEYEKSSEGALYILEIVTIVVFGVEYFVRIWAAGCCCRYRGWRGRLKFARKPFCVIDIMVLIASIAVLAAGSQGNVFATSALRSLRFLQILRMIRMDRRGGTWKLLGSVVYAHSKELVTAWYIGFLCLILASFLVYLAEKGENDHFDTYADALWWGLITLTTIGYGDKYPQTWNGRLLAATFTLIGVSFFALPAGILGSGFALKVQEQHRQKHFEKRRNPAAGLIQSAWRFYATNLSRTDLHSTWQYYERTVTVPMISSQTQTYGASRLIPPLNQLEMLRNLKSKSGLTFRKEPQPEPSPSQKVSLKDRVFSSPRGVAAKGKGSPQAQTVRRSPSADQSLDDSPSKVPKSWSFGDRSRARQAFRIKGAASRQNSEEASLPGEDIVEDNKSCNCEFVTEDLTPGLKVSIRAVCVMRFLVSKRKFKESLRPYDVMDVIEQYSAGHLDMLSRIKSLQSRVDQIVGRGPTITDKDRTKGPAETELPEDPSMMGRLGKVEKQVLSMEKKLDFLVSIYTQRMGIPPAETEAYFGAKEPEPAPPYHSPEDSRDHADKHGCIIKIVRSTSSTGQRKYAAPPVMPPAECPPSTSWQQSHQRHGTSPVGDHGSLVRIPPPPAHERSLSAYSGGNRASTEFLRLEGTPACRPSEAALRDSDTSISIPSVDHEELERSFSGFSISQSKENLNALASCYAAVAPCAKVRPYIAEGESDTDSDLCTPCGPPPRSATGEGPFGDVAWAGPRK
KCNQ2 inh baseline – further read-out of KCNQ2 inh, marked with its call; B-score; measured here: initial fluorescence intensity artifact check;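 brightness before thallium and not channel activity; 0 = typical well and far values either way flag optical interference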
Active calls of the source: *; i = inactive.

SMILES	KCNQ2 inh	KCNQ2 inh baseline
CN(C)c1ccc(C=NCC2(O)CCOC(C)(C)C2)cc1 (stereo not drawn)	i	1.8
CCCCOC(=O)c1ccc(NC(=O)c2c(OC)cccc2OC)cc1	i	0.38
NS(=O)(=O)c1ccc(CCNC(=O)c2ccccc2OCc2ccc(F)cc2)cc1	i	-0.01
Cc1ccc(C(=O)N/C(=C\c2cccs2)C(=O)NCCc2c[nH]c3ccccc23)cc1	i	2.2
COC(=O)Cc1csc(Nc2ccccc2)n1	i	-0.94
CCN1CCN(C(=O)Nc2ccc(Cc3ccc(NC(=O)N4CCN(CC)CC4)cc3)cc2)CC1	i	-0.43
NC(=O)c1ccc(NC(=O)COC(=O)/C=C/c2cn(-c3ccccc3)nc2-c2cccnc2)cc1	i	0.78
Cc1ccc(CC(=O)N2CCN(c3ccc([N+](=O)[O-])cc3)CC2)cc1	i	1.1
O=C(OCc1ccccc1)N1CCCC1/C=C/CN1CCOCC1 (stereo not drawn)	i	2.4
Cc1ccc(S(=O)(=O)N2CCN(C(=O)c3c(-c4ccccc4)noc3C)CC2)cc1C	i	1.7
CSc1cccc(NS(=O)(=O)c2ccc(C(C)=O)cc2)c1	i	0.32
CCOc1ccccc1N(C)C(=O)c1cn(C)c(=O)c2ccccc12	i	-0.88
CC(NC(=O)c1ccc(CS(=O)(=O)c2ccc(Cl)cc2)o1)c1ccc2c(c1)OCCO2 (stereo not drawn)	i	-0.77
NNC(=S)Nc1c(F)cc(F)cc1Br	i	2.6
CCN(CC)S(=O)(=O)c1ccc(N2CCOCC2)c(NC(=O)c2cc3ccccc3oc2=O)c1	-5.5*	-1.9*
Cc1cc(OCC(=O)Nc2ccc3c(c2)OCCO3)cc(C)c1Cl	i	-0.79
CCOc1ccc(C(=O)Nc2ncn[nH]2)cc1	i	-0.16
CCCN(CCC)c1ccc(CC(=O)NC(C)Cc2ccccc2)cc1 (stereo not drawn)	i	-0.46
c1ccc(-c2c[nH]c3[n+]2CCCCC3)cc1	i	-0.01
C/C=C/COC(=O)c1[nH]c2c(c1C)C(=O)CC(c1ccc(N(C)C)cc1)C2 (stereo not drawn)	i	0.04
CCC(CC)N1CCN(C(=O)c2cccc(Cl)c2)CC1	i	-0.18
CCOc1cc(-c2nc(-c3ccccc3)c(-c3cc([N+](=O)[O-])ccc3C)[nH]2)ccc1O	i	-0.19
CC1CC(c2ccccc2)=Nc2ccccc2N1 (stereo not drawn)	i	2.1
O=[N+]([O-])c1ccccc1SNc1ccc(Br)cn1	i	-1.1
N/C(=N\OC(=O)c1ccc(Br)cc1)c1ccncc1	i	1.9

15 structures out of the list, ordered by heavy-atom count, descending.
SMILES	KCNQ2 inh	KCNQ2 inh baseline
CCN1CCN(C(=O)Nc2ccc(Cc3ccc(NC(=O)N4CCN(CC)CC4)cc3)cc2)CC1	i	-0.43
CCN(CC)S(=O)(=O)c1ccc(N2CCOCC2)c(NC(=O)c2cc3ccccc3oc2=O)c1	-5.5*	-1.9*
Cc1ccc(S(=O)(=O)N2CCN(C(=O)c3c(-c4ccccc4)noc3C)CC2)cc1C	i	1.7
NS(=O)(=O)c1ccc(CCNC(=O)c2ccccc2OCc2ccc(F)cc2)cc1	i	-0.01
C/C=C/COC(=O)c1[nH]c2c(c1C)C(=O)CC(c1ccc(N(C)C)cc1)C2 (stereo not drawn)	i	0.04
CCCCOC(=O)c1ccc(NC(=O)c2c(OC)cccc2OC)cc1	i	0.38
CCOc1ccccc1N(C)C(=O)c1cn(C)c(=O)c2ccccc12	i	-0.88
Cc1cc(OCC(=O)Nc2ccc3c(c2)OCCO3)cc(C)c1Cl	i	-0.79
CSc1cccc(NS(=O)(=O)c2ccc(C(C)=O)cc2)c1	i	0.32
CCC(CC)N1CCN(C(=O)c2cccc(Cl)c2)CC1	i	-0.18
N/C(=N\OC(=O)c1ccc(Br)cc1)c1ccncc1	i	1.9
O=[N+]([O-])c1ccccc1SNc1ccc(Br)cn1	i	-1.1
CCOc1ccc(C(=O)Nc2ncn[nH]2)cc1	i	-0.16
c1ccc(-c2c[nH]c3[n+]2CCCCC3)cc1	i	-0.01
NNC(=S)Nc1c(F)cc(F)cc1Br	i	2.6

(next part)
SMILES	KCNQ2 inh	KCNQ2 inh baseline
O=C(NCCN1CCCC1)c1ccc(CS(=O)(=O)c2c(Cl)cccc2Cl)o1	i	3.9
O=c1[nH]cc(S(=O)(=O)N2CCOCC2)c(=O)[nH]1	i	-2.3
COc1cc(OC)cc(C(=O)N[C@H](C(=O)Nc2ccc(F)cc2F)C(C)C)c1	i	-1.6
O=C(COC(=O)c1ccc2ccccc2n1)NCc1ccccc1	i	-0.34
CC(=O)c1cc(F)c(N2CCN(C(=O)Cc3ccccc3)CC2)cc1C	i	-1.3
COCCNC(=O)C1CCC(CNS(=O)(=O)c2ccc3c(c2)CC(C)N3C(=O)C2CC2)CC1 (stereo not drawn)	i	0.6
CC(Oc1cc2oc(=O)c3c(c2cc1Cl)CCC3)C(=O)NCCCN1CCOCC1 (stereo not drawn)	i	-0.52
Cc1cc(C(=O)CSc2nc(N)cc(N)n2)c(C)n1C1CC1	i	1.5
CCc1ccc(NC(=O)C(=S)NC2CCCCC2)cc1	i	-0.88
CC(C)(C)NC(=O)C(c1ccc(F)cc1)N(Cc1ccccc1Cl)C(=O)c1ccn[nH]1 (stereo not drawn)	i	-0.32
CN(C(=O)COC(=O)c1cc(-c2ccco2)nc2ccccc12)C1CCS(=O)(=O)C1 (stereo not drawn)	i	-0.58
CCCN=C1CC(C)(C)CC(=O)/C1=C(/O)CCC	i	-0.24
COc1ccc(OC)c(/C=N/NC(=O)c2ccc(N(C)S(=O)(=O)c3ccccc3)cc2)c1	i	-1.4
COc1ccc2[nH]c(C)c(-c3csc(N)n3)c2c1	i	-0.65
CCC(c1nnnn1C(C)(C)CC)N(CCCO)Cc1cc2cc(C)cc(C)c2[nH]c1=O (stereo not drawn)	i	-0.15
O=C(NCc1ccccc1)c1cccc(S(=O)(=O)N2CCOCC2)c1	i	-0.79
O=C(COC(=O)C1CC1)Nc1c(Cl)cccc1C(F)(F)F	i	0.41
Cc1ccc(C(=O)NC2CC(C)(C)NC(C)(C)C2)cc1	i	0.43
CCCCNC(=O)CSc1nc2ccccc2n1S(=O)(=O)c1ccc(Br)cc1	i	2.3
Cc1cccc(S(=O)(=O)NCCc2ccccc2)c1	i	1.9
O=C(NCC(=O)N1CCC2(CC1)NCCc1[nH]cnc12)c1cccc(Cl)c1	i	1.2
CCCCC(CC)CN1C(=O)/C(=C/c2ccncc2)SC1=S (stereo not drawn)	i	1.4
COc1cccc(NC(=O)CSc2ncnc3c2oc2ccccc23)c1	i	2.1
Cc1nn(C(=O)CCCC(=O)NCc2ccccc2)c2ccccc12	i	-0.55
CCC(c1nnnn1Cc1cccs1)N1CCN(c2nc3ccccc3s2)CC1 (stereo not drawn)	i	1.3

The listing continues.
SMILES	KCNQ2 inh	KCNQ2 inh baseline
Cc1ccccc1OCC(=O)N/N=C1\CCOc2c(C)cccc21	i	2.8
O=C(Nc1ccc2c(c1)Cc1ccccc1-2)c1ccco1	i	-0.59
O=C(NCc1ccco1)C1CCCN1S(=O)(=O)c1ccccc1C(F)(F)F (stereo not drawn)	i	2.2
O=C(CSCc1ccccc1)Nc1ccc(S(=O)(=O)Nc2ncccn2)cc1	i	-2.3
CCOC(=O)C1(CCCc2ccccc2)CCN(C(=O)C2CCCO2)CC1 (stereo not drawn)	i	-1.4
COc1ccc(OC)c(Nc2nc(-c3cccc([N+](=O)[O-])c3)nc3ccccc23)c1	i	-0.31
CCCN=C1NC(=O)C(CC(=O)NCCc2ccccc2)S1 (stereo not drawn)	i	-0.02
O=C1CCCC2=C1C(c1cn(-c3ccccc3)nc1-c1cccs1)c1c([nH]c(=O)[nH]c1=O)N2 (stereo not drawn)	i	1.3
CC1CCCN(C(=O)c2cc(N3C(=O)C4C5CCC(C5)C4C3=O)ccc2Cl)C1 (stereo not drawn)	i	-0.28
Cc1nc2ccc(F)cc2cc1C(=O)NCc1ccco1	i	-0.02
O=C(N/N=C1\C2CN3CCN(C2)CC1(c1ccccc1)C3)Nc1ccccc1	i	1.2
CCOC(=O)c1ccccc1OCc1cc(/C=N/NC(=O)c2cccnc2)ccc1OC	i	-1.5
CN1/C(=C\C(=O)COc2ccc3c(c2)OCO3)C(C)(C)c2ccccc21	i	2.1
CCC(C)NC(=O)[C@H]1N2C(=O)c3ccccc3C2SC1(C)C (stereo partly drawn)	i	-0.35
CCCCc1n[nH]c2c1/C(=N/O)CC(C)(C)C2	i	3.1
Cc1cc2n(n1)C(c1sccc1C)Nc1ccccc1-2 (stereo not drawn)	i	-0.02
Cc1nc2c(C)cccn2c1/C(O)=C1\C(=O)C(=O)N(CCN(C)C)C1c1ccccc1 (stereo not drawn)	i	2.4
O=C(NNS(=O)(=O)c1ccc2ccccc2c1)c1cccnc1	i	1.1
CC1=C(C(N)=O)C(c2ccccc2F)NC(=O)N1 (stereo not drawn)	i	0.27
C#CCOC(=O)c1csc2nnsc12	i	-0.28
Cc1ccc(OCCSc2nc(NC(C)C)nc(NC(C)C)n2)cc1	i	-0.68
COc1ccccc1C1/C(=C(/O)c2ccc(OC(C)C)cc2)C(=O)C(=O)N1c1cc(C)on1 (stereo not drawn)	i	1.1
O=C(COC(=O)C12CC3CC(CC(O)(C3)C1)C2)Nc1ccccc1OC(F)F	i	-0.78
O=C(CN1C(=O)c2ccccc2C1=O)NCC(=O)OCC(=O)c1ccc(Br)cc1	i	-0.62
N#C/C(=C\c1ccccc1[N+](=O)[O-])c1nc(C2CC2)cs1	i	-0.71

(listing goes on)
SMILES	KCNQ2 inh	KCNQ2 inh baseline
COc1ccc(CN(Cc2cccn2C)S(=O)(=O)c2ccccc2)cc1	i	-0.98
S=c1nc(NCc2cccc(Cl)c2)c2ccccc2[nH]1	i	2.1
Cc1ccc2nc(SCC(=O)N(CC(C)C)c3c(N)n(CC(C)C)c(=O)[nH]c3=O)[nH]c2c1	i	0.4
Cc1c(C(=O)N2CCNCC2)oc2ccccc12	i	0.22
CSCC[C@H](NC(=O)N1CCn2c1nc1ccccc12)C(=O)NCc1ccc(C)cc1	i	-0.71
COc1ccccc1CN(Cc1cc2cc3c(cc2[nH]c1=O)OCCO3)Cc1nnnn1Cc1ccco1	i	1.5
O=C(CN1C(=O)C2C3c4ccccc4C(c4ccccc43)C2C1=O)Nc1ccccc1C(=O)O (stereo not drawn)	i	0.37
CCOc1cccc2c1OC(c1cc(OC)c(OC)c(OC)c1)N1N=C(c3ccc(C)o3)CC21 (stereo not drawn)	i	2.1
[2H]c1c([2H])c([2H])c(-c2nc(N3CCCCCC3)sc2C(=O)c2ccccc2)c([2H])c1[2H]	i	-1.2
COc1cc(OC)cc(/C(N)=N/O)c1	i	0.01
Cc1ncc(CO)c(/C=N/NC(=S)Nc2ccc(Cl)c(Cl)c2)c1O	i	-0.3
Cc1ccc(C)c2c3c([nH]c12)-c1nonc1CC3	i	0.06
CC(=O)N1CCc2cc(S(=O)(=O)Nc3ccc(C)cc3)ccc21	i	0.27
C=CCn1c(-c2ccc(=O)n(Cc3ccccc3)c2)n[nH]c1=S	i	1.1
O=C(Nc1nc2nc(-c3ccccc3)cc(=O)n2[nH]1)c1ccccc1	i	0.59
CSc1cccc(NC(=O)/C=C/c2ccco2)c1	i	-0.28
C=CCc1ccccc1OCC(O)CN1CCN(CCO)CC1 (stereo not drawn)	i	-0.23
COc1ccc2cc(C(c3nnnn3CC3CCCO3)N3CCOCC3)c(=O)[nH]c2c1 (stereo not drawn)	i	-0.3
O=C(Cc1n[nH]c(=O)[nH]c1=O)N/N=C/c1ccccc1	i	-1.2
CCOC(=O)C1CCN(C(=O)c2ccc(C)c(S(=O)(=O)N3CCCC3)c2)CC1	i	3.3
O=[N+]([O-])c1ccc(N/N=C/c2c[nH]c3ccccc23)c(S(=O)(=O)Nc2ccc(Cl)cc2)c1	i	0.16
CCOC(=O)Cn1nnc2c(sc3nc4c(c(-c5ccc(Cl)cc5)c32)CCC4)c1=O	-6.7*	-0.02*
O=c1ccc(-c2ccccc2)nn1Cc1ccc(Cl)cc1	i	-1.2
CCOc1cc(S(=O)(=O)NCCc2cccc(C)c2)c(OCC)cc1-n1cnnn1	i	0.03
COc1cccc(/C=C/C(=O)c2cccc([N+](=O)[O-])c2)c1OC	i	-0.55

Next part
SMILES	KCNQ2 inh	KCNQ2 inh baseline
O=[N+]([O-])c1c(Nc2cccc(O)c2)cc(Cl)c2nonc12	-16*	-5*
Cc1cccc(OCC(=O)Nc2ccc3c(c2)C(=O)NC3=O)c1	i	-1.3
C=CCc1cccc2cc(C(=O)N3CCN(C(=O)c4ccco4)CC3)c(=O)oc12	i	0.24
CC(=O)c1c[nH]c(C(=O)NCc2ccccc2Cl)c1	i	-0.43
CC1(C)CC(=O)/C(=C(\O)Cc2ccccc2)C(=NCCCCCC(=O)O)C1	i	0.17
COc1ccc(-c2nc(NC(=O)CSc3nnc4ccccn34)ns2)cc1	i	0.37
CCOC(=O)C(C#N)=C1CCN(Cc2ccccc2)CC1	i	0.5
Cc1ccccc1NS(=O)(=O)c1nnc(NC(=O)c2ccccc2C)s1	i	0.81
CCc1ccccc1Oc1ccc(S(=O)(=O)N2CCN(C)CC2)cn1	i	0.8
O=C(CNC1CCCCC1)Nc1cccc(C(F)(F)F)c1	i	-0.64
NC(=S)N/N=C/c1ccc([N+](=O)[O-])cc1	i	-1.1
O=C(NCCN1CCOCC1)c1ccc(=O)oc1	i	0.84
O=C(CN1CCCCC1)Nc1cc(Cl)ccc1Oc1ccccc1	i	-0.48
O=C(Cc1ccc(-n2c(=O)c3sccc3n(CC(=O)Nc3ccccc3)c2=O)cc1)NCc1ccco1	i	-0.11
C[C@@H](CSc1ccccc1)CN1CC[C@H](NC(=O)OCc2ccccc2)CCC1=O	i	-0.58
O=C(NCCN1CCOCC1)c1cnn2c(-c3ccccc3)cc(-c3ccccc3)nc12	i	-0.6

Screens from PubChem.

The list is partial, so the mix of outcomes need not match the whole.
